A647 fluor = A647 region autofluorescence | Compound fluorescence, A647 channel (570/671 nm), Tris buffer | max dye-equivalent concentration, M | 59,000 tested, under 10 active | AID 592; active means above 1 µM dye equivalent; inconclusive means 0.1 to 1 µM; inactive means 0.1 µM or less;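 note: values scaled relative to a standard on each plate; highest value over a series up to 38 µM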
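Tris 100 mM pH 8.0; cpd + A647 stds pin-transferred; 15 min RT; CCD imager, ex 570/em 671. Output = A647-equivalent conc. per cpd conc.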
Resorufin autofl = resorufin region autofluorescence. max dye-equivalent concentration, M. 59,000 tested, 0.04% active. Compound fluorescence, resorufin region 547/598 nm, buffer; active compounds read high; active = above 10 nM dye equivalent; inconclusive = 1 to 10 nM; inactive = 1 nM or less; a few of its hits are not listed in these tables; note: highest value over a series up to 38 µM
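Read-out: intrinsic compound fluorescence at ex 547/em 598 nm after 15 min at RT in pH 8.0 Tris (100 mM). Values expressed as resorufin-equivalent concentration from per-plate standard series.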
A488 autofl = compound fluoresces in the A488 spectral region; 59,000 tested, 0.1% active; compound autofluorescence, A488 spectral region, dye equivalency; active compounds read high; max dye equivalency, M; active = above 10 nM dye equivalent; inconclusive = 1 to 10 nM; inactive = 1 nM or less; about half of its hits are not listed in these tables;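 note: highest value over a series up to 38 µM; compound alone in buffer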
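Compound autofluorescence was read in 100 mM Tris pH 8.0 after 15 min at room temperature, ex 480 nm/em 540 nm. Intensities were converted to A488 dye-equivalent concentration using an on-plate six-point A488 standard curve.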
TSHR agonist = agonists of human thyroid stimulating hormone receptor | P16473 | HEK293-CNG-TSHR cells (CNG channel as cAMP sensor), membrane potential dye, cAMP | Potency, µM (titrated, usually from 57.1 µM), inactives show top-dose activation, actives largely listed as activators | 73,000 tested, 0.48% active; active = well fitted activation curve of enough size with the parental cells flat; inconclusive = any curve in the parental cells; inactive = parental cells flat and receptor cells flat or falling; note: potency is the fitted concentration of half-maximal effect; % of control where 0% means no effect; weak receptor curves with flat parental cells got no call and are not listed
Target sequence (P16473 whole entry, looked up): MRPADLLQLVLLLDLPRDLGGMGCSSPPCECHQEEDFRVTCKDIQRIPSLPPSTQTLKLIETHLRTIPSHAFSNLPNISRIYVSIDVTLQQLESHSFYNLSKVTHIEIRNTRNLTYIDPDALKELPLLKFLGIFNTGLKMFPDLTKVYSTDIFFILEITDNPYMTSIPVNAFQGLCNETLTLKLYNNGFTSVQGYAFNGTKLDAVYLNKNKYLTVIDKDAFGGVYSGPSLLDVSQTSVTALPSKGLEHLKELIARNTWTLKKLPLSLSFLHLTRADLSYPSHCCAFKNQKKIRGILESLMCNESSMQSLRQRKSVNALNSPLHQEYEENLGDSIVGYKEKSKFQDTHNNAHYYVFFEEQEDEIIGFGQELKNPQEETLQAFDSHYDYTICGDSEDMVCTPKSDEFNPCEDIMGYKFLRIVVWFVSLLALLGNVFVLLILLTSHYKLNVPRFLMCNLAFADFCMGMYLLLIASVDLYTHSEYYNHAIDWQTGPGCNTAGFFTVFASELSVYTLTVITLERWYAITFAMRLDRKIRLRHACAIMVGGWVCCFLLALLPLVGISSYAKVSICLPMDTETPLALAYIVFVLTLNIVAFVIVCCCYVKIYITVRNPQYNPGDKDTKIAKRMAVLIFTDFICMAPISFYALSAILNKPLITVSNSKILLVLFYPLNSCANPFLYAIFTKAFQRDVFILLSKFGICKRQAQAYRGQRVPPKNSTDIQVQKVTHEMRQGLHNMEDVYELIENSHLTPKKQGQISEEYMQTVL
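HEK 293 cells stably expressing TSHR and a modified CNG channel, with CNG-only parental cells as counterscreen, were preloaded 60 min at room temperature with membrane potential dye containing 100 uM RO 20-1724. Compound exposure was 30 min, and depolarization was read as fluorescence at 590 nm.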
AID923 = qHTS Assay for Allosteric/Competitive Inhibitors of Caspase-1: Spectroscopic Profiling in AFC Spectral Region; compound fluorescence, AFC spectral region (405/520 nm); almost no hit is shown here; Potency, µM (top dose mostly 57.5 µM), for inactives: at the top dose fluorescence increase, actives largely listed as activators; 75,000 tested, 1.1% active; active = well fitted activation curve with a large enough effect; inconclusive = small, poorly fitted or top-dose-only effect;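 note: potency is the fitted concentration of half-maximal effect; 0% is about no effect; scaled to a free AFC standard on each plate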
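Titrations up to 57 uM read every 20 sec for 3 min (405/520 nm) with 50 nM caspase 1 and 5 uM Ac-WEHD-AFC, pH 7.5 HEPES buffer. Fluorescence-vs-time intercept gave baseline, scaled against on-plate AFC standard.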
* hit, by the source's call; i = inactive; ? = inconclusive; . = not tested or not shown; [ ] = dose if it differs, or a comment.

| SMILES | A647 fluor | Resorufin autofl | A488 autofl | TSHR agonist | AID923 |
| --- | --- | --- | --- | --- | --- |
| O=C(CSc1nc2ccccc2s1)Nc1ncccn1 | 1e-09 | i | i | 14.2% | 1.6% |
| O=C1Nc2c(Br)cc(Br)cc2C1(O)N1CCOCC1 (stereo not drawn) | 2.34e-08 | i | i | 11.1% | 2.1% |
| CC1Cc2nc(SCC(=O)NCC3CCCO3)n(Cc3ccccc3)c(=O)c2S1 (stereo not drawn) | 3.21e-08 | i | i | -5.7% | 0.5% |
| CC1(C)Cc2c(c(-c3ccccc3Cl)[nH]c(=O)c2C#N)CO1 | 2.9e-09 | i | i | . | . |
| COc1ccc2oc(-c3ccccc3)c(C(N)=O)c2c1 | . | . | . | ? | 0.8% |
| O=C(Cn1cc2c(n1)CCCCC2)Nc1ccc(F)cc1F | . | . | . | 13.8% | -6.5% |
| CS(=O)(=O)NC1c2cccc3cccc(c23)C1Sc1nncn1/N=C/c1ccco1 (stereo not drawn) | 2.63e-08 | i | i | 3.4% | 2.1% |
| Cc1ccc(NC(=O)CS(=O)CC(=O)NC2CCN(Cc3ccccc3)CC2)c(C)c1 (stereo not drawn) | 2.82e-08 | i | i | 0.7% | 0.1% |
| CCOC(=O)c1[nH]c(C)c(C(=O)NC2CCCC2)c1C | . | . | . | ? | -0.4% |
| CCCC(=O)Nc1ccc(S(=O)(=O)Nc2cc(C)nc(C)n2)cc1 | 3.35e-08 | i | i | -3.3% | -0.3% |
| Cn1c(-c2ccc3c(c2)OCO3)cnc1NCc1ccc(Cl)cc1 | 2.69e-08 | i | i | ? | 1.5% |
| O=C(Nc1ccc(S(=O)(=O)N2CCc3ccccc32)cc1)c1ccc2c(c1)OCO2 | 4.3e-09 | i | i | 7.5% | 0.4% |
| COc1nc(-c2ccccc2)cc(C(F)(F)F)n1 | 3.77e-08 | i | i | 10.9% | 1.1% |
| CCCOc1ccc(-c2nnn(CC(=O)OCC)n2)cc1 | 5.76e-08 | i | i | -11.0% | -1.4% |
| Cc1occc1C(=O)Nc1cc(C(C)(C)C)on1 | 2.2e-09 | i | i | ? | -2.5% |
| CC(C)[C@]1(Cl)CC[C@@H]2[C@]3(C)CCC[C@@](C)(C(=O)O)[C@H]3C[C@H](Cl)[C@@]2(Cl)[C@H]1Cl | 1.23e-08 | i | i | 2.5%[11.4 µM] | -1.6%[11.5 µM] |
| COc1ccc(C(=O)N2CCC3(CCCN(C(c4ccccc4)c4ccccc4)C3)CC2)cc1 | 3e-09 | i | i | -1.5% | 2.9% |
| O=C(COC(=O)CCC(=O)c1cccs1)Nc1ccc(S(=O)(=O)N2CCOCC2)cc1 | 1e-09 | i | i | -0.3% | -0.5% |
| CCN(CC)C(=O)c1ccc(C)c(Br)c1 | 4.3e-09 | i | i | 8.2% | 0.0% |
| CC(C)c1cc(C(F)(F)F)n2nc(C(=O)Nc3ccc4c(c3)OCO4)cc2n1 | 1.01e-08 | i | i | 23.7% | 1.2% |
| COc1ccc(CCNc2cc(=O)[nH]c(N)n2)cc1 | 4.1e-09 | i | i | 19.0% | 1.5% |
| C=CCNC(=O)c1ccccc1NC(=O)Nc1ccccc1 | 4.34e-08 | i | i | -3.0% | -4.0% |
| COc1ccc(Br)cc1-c1noc(-c2ccccc2)n1 | 1.16e-08 | i | i | ? | -1.6% |
| O=C(CSc1n[nH]c(-c2cccs2)n1)NCc1cccs1 | 1.68e-08 | i | i | 4.6% | -0.6% |
| Cn1nnnc1SCCNCc1cccnc1 | 2.48e-08 | i | i | -0.2% | -1.5% |
| O=C1Nc2cc(Cl)ccc2C1(N1CCNCC1)C(F)(F)F (stereo not drawn) | 1e-09 | i | i | -1.1%[11.4 µM] | -0.7% |
| CCCOC(=O)c1ccc(NC(=O)c2ccoc2C)cc1 | . | . | . | 6.3% | -2.6% |
| O=C(c1ccco1)N1CCN(C/C=C/c2ccccc2)CC1 | 3.7e-09 | i | i | 2.8% | 0.8% |
| COc1cccc(-n2nnc3c(=O)n(Cc4cccc(C)c4)cnc32)c1 | . | . | . | 3.6% | -3.4% |
| c1cncc(-c2nnc3n2CCC3)c1 | 3.56e-08 | i | i | -0.3% | -0.9% |
| CC1(C)CC(O)C(CCC(O)c2ccccc2)C(C)(C)N1 (stereo not drawn) | 2.87e-08 | i | i | -5.3% | -0.5% |
| CC1CCN(C(=O)c2cccc(S(=O)(=O)N3CCCCC3)c2)CC1 | 6.1e-09 | i | i | 24.4% | -0.4% |
| O=C(C1CC1)N1CCc2cc(Br)cc(S(=O)(=O)NCCN3CCOCC3)c21 | 2.5e-09 | i | i | 1.0%[11.4 µM] | -1.9% |
| CC(C)C(c1nnnn1CCc1ccccc1)N1CCN(C(=O)c2ccco2)CC1 (stereo not drawn) | 7.7e-09 | i | i | 6.6% | 0.8% |
| CCOC(=O)c1sc(NC(=O)C(CC)Sc2nnc3c4ccccc4n(CC)c3n2)nc1C (stereo not drawn) | 3.9e-09 | i | i | 1.8% | 1.7% |
| CC1(C)Cc2c(C#N)c(OCC(=O)c3ccc(Cl)cc3)nc(-c3ccco3)c2CO1 | 1e-09 | i | i | . | 0.1% |
| C=C[C@@]1(C)CC(=O)[C@@]2(O)[C@@]3(C)[C@@H](O)CCC(C)(C)[C@@H]3[C@H](OC(=O)CCN(C)C)[C@H](OC(C)=O)[C@@]2(C)O1 | . | . | . | ? | -0.4% |
| O=c1ccc2ccc(OCc3nnc(-c4ccccc4Br)o3)cc2o1 | 1.39e-08 | i | i | 18.0% | 1.2% |
| Cc1cc(C)n(-c2nc(-n3nc(C)cc3C)c3c4c(sc3n2)COC(C)(C)C4)n1 | . | . | . | 23.0% | 0.9% |
| CCOC(=O)C1CCN(c2ncnc3c2oc2ccc(Cl)cc23)CC1 | 2.5e-09 | i | i | ? | -1.4% |
| CCOC(=O)C1=C(CNCCc2ccc(Cl)cc2)NC(=O)NC1c1ccc2c(c1)OCO2 (stereo not drawn) | 1.19e-08 | i | i | 20.9% | -1.3% |
| N#Cc1cccc(NC(=O)CC2CCCCC2)c1 | . | . | . | ? | 3.0% |
| Cc1ccc(Cl)cc1N1CCN(C(=O)C2CCN(S(=O)(=O)c3cccnc3)CC2)CC1 | 3.86e-08 | i | i | 25.5% | -1.6% |
| CS(=O)(=O)N1CCC2(CCCN(C(=O)Nc3ccccc3)C2)CC1 | 1e-09 | i | i | 5.3% | 1.0% |
| CCOC(=O)N1CCN(C(=O)N2CCOCC2)CC1 | 1.79e-08 | i | i | 6.6% | -1.7% |
| Cc1ccc(-n2c(SCC(N)=O)nnc2-c2ccccn2)cc1C | 6.22e-08 | i | i | 1.2% | -1.2% |
| NCCNc1ncnc2ccc(Cl)cc12 | 2.43e-08 | i | i | -6.6%[11.4 µM] | -1.5%[11.5 µM] |
| COc1ccc(NC(=O)N2CCC3(CC2)CCN(S(=O)(=O)c2ccccc2)CC3)cc1 | 1e-09 | i | i | 2.6% | 0.4% |
| Cc1noc(C)c1S(=O)(=O)N(CCc1ccccc1)Cc1ccccc1 | 3.6e-09 | i | i | ? | -1.3% |
| c1ccc2c(c1)oc1c(Nc3ccc(CN4CCOCC4)cc3)ncnc12 | 1.42e-08 | i | i | . | -0.9% |

Quoted from the listing:
In AID923, c1ccc2c(c1)oc1c(Nc3ccc(CN4CCOCC4)cc3)ncnc12 shows -0.9%
In A647 fluor, CCOC(=O)N1CCN(C(=O)N2CCOCC2)CC1 shows 1.79e-08

Following part:
| SMILES | A647 fluor | Resorufin autofl | A488 autofl | TSHR agonist | AID923 |
| --- | --- | --- | --- | --- | --- |
| COc1cccc(-c2cc(C(=O)NC3CCCC3)no2)c1 | 2.23e-08 | i | i | ? | -0.6% |
| CC(=O)c1ccc(NC(=O)CSc2nc3nc(C)cc(C)n3n2)cc1 | . | . | . | -14.0% | -0.6% |
| COC(=O)[C@H](CCSC)NC(=O)Nc1ccc(OC)cc1 | 5.2e-09 | i | i | -4.7% | 1.6% |
| Cc1ccc(C(=O)O)cc1S(=O)(=O)NCC1CCCO1 (stereo not drawn) | 1e-09 | i | i | . | -0.4% |
| O=C(Nc1cccc(Br)c1)c1cc2ccccc2o1 | . | . | . | ? | 1.7% |
| COC(=O)[C@H](C)NC(=O)NCc1ccco1 | 8e-09 | i | i | 5.5% | 0.5% |
| CCCS(=O)(=O)N1CCCC(C(=O)NCCN(C)Cc2ccccc2)C1 (stereo not drawn) | 2.8e-09 | i | i | 8.8% | -0.2% |
| COc1ccc2c(c1)OC(O)(C(F)(F)F)CC2=O (stereo not drawn) | . | . | . | 10.0% | -1.7% |
| COc1cccc(N2CCN(c3ncccn3)CC2)c1 | . | . | . | -9.8% | 2.1% |
| CCC(C)(C)NC(=O)C(OC(=O)c1cc2sccc2n1C)c1ccc(OC)cc1 (stereo not drawn) | 1e-09 | i | i | ? | -0.6% |
| COc1ccc(-c2noc(-c3ccccc3C(=O)NCc3ccco3)n2)cc1 | 1e-09 | i | i | ? | 1.1% |
| COc1ccc(OC)c(NC2=NC3(CCCC3)N=C(N)N2)c1 | 1e-09 | i | i | 1.8% | -1.5% |
| COC(=O)c1cc(=O)[nH]c(=O)[nH]1 | 1e-09 | i | i | -0.1%[11.4 µM] | -0.6%[11.5 µM] |
| CCCCCSc1nc(N2CCOCC2)c2c(c1C#N)CC(C)(C)OC2 | 8.45e-08 | i | i | . | . |
| COc1cc(OC)cc(C(=O)N2CCN(Cc3ccccc3C(F)(F)F)CC2)c1 | . | . | . | 6.7% | 3.0% |
| Cc1ccc(-n2nnc3c(=O)n(CC(=O)N4CCC(C)CC4)cnc32)cc1 | 4.9e-09 | i | i | 8.6% | 0.2% |
| CCN(CC)S(=O)(=O)c1ccc(NCc2ccccc2)nc1 | 6.6e-09 | i | i | 16.7% | -2.1% |
| CC(=O)OCCn1c(Br)nc2c1c(=O)[nH]c(=O)n2C | 3.13e-08 | i | i | 2.9% | -0.5% |
| COC(=O)c1ccc(CSc2nc3ccccc3c(=O)n2Cc2ccco2)o1 | 1e-09 | i | i | ? | 0.3% |
| CCOC(=O)c1cnc(SC2CCc3ccccc3C2=O)nc1N (stereo not drawn) | 1.06e-08 | i | i | 11.2% | 0.6% |
| CCCn1c(=O)c(C(=O)NCc2ccc(OC)c(OC)c2)c(O)c2ccccc21 | 1.95e-08 | i | i | 13.1% | 0.8% |
| O=C(NC1C=CS(=O)(=O)C1)c1sc2ccccc2c1Cl (stereo not drawn) | 1.43e-08 | i | i | 12.4% | 0.7% |
| CCOC(=O)c1cc2sc(C)cc2n1CC(=O)Nc1ccc2c(c1)OCCO2 | 1e-09 | i | i | ? | -0.4% |
| Nc1nnc(N2CCCCC2)s1 | 2.08e-08 | i | i | 1.5% | -1.4% |
| CCOc1ccccc1NC(=O)NC1(C(=O)N2CCOCC2)CCCCC1 | 2.49e-08 | i | i | -2.3% | -0.6% |
| CN(C)Cc1cc(O)c(O)c(CN(C)C)c1 | 1.65e-08 | i | i | 1.4%[11.4 µM] | 0.4%[11.5 µM] |
| COc1ccc(NC(=O)CSc2nnc(-c3cccs3)n2-c2ccccc2)cc1 | 2.43e-08 | i | i | 7.3% | -0.3% |
| CN(C)/C=C1\N=C(c2cccs2)OC1=O | 5.65e-08 | i | i | . | . |
| Cc1onc(-c2c(Cl)cccc2Cl)c1C(=O)N[C@H]1C(=O)N2[C@H]1SC(C)(C)[C@H]2C(=O)O | 5.1e-08 | i | i | -16.5%[25.6 µM] | -7.3%[25.7 µM] |
| CCOC(=O)CCCCC(=O)c1[nH]c(=O)[nH]c1CSc1nc(C)cc(C)n1 | . | . | . | 12.7%[11.4 µM] | 3.0% |
| COc1cc2c(cc1OC)C(C(=O)N1CCN(c3ccccn3)CC1)C(c1cccs1)N(C)C2=O (stereo not drawn) | 2.59e-08 | i | i | 10.9% | -0.3% |
| COc1ccccc1-c1nnc(SCC(=O)NCc2c(C)c(Cl)cc(C(C)C)c2O)o1 | 9.2e-09 | i | i | -3.2% | -1.8% |
| Cc1ccco1 | . | . | . | -1.9% | 1.5% |
| Cc1ccc2c(c1)nc(NCCO)n2C | 3.15e-08 | i | i | 4.9% | 2.2% |

An excerpt; count on the stated rates, not on these rows.
